# High-throughput results from PubChem BioAssay.
# GIV-Gai inh: inhibitors of GIV peptide binding to Galpha-i3, primary screen, biochemical, fluorescence polarization, FITC-GIV GBA peptide, rat Galphai3. Guanine nucleotide-binding protein G(i) subunit alpha-3 (Rattus norvegicus), P08753. 90 min; active compounds read low; scaled: aluminum fluoride 0%, vehicle 100%. percent of control (FP), % (concentration not given with the values). hit rate 0.42% among 210,000;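 active = replicate mean at 85% of control or lower, very high polarization wells dropped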;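 also: wells of about 15 µL received 100 nL stock; the first replicate is given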
# Target sequence (P08753 whole entry, looked up): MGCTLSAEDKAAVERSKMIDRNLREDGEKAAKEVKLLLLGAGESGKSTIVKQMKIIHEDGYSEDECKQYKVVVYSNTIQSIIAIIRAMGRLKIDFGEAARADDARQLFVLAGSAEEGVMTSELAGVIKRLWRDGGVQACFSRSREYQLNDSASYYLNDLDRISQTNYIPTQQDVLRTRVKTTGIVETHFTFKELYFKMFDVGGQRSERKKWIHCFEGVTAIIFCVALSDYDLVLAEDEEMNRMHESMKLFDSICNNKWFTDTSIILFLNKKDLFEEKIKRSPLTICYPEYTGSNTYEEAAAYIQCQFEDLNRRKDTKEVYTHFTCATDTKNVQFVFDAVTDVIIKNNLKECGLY
# An asterisk follows results filed as active. Only part of the results is shown. The share of hits here may be higher or lower than overall.
GIV-Gai inh | Molecule
104.4 | C=CCc1cc([N+](=O)[O-])cc2c1OC1(C=C2)N(c2ccccc2)c2ccccc2C1(C)C (stereo not drawn)
103.5 | CCOC(=O)c1sc(NC(=O)CNC(=O)Cn2cnc3sc(C)c(C)c3c2=O)nc1C
105.3 | CCCNC(=O)CN1c2ccccc2NC2=C(C(=O)CC(C)(C)C2)C1c1ccccc1 (stereo not drawn)
101.8 | Cc1ccc(C(=O)Nc2c3c(nn2C(C)(C)C)CS(=O)(=O)C3)cc1C
99.3 | CCC(C)C(=O)N1CCCN(S(C)(=O)=O)CC1 (stereo not drawn)
110.5 | Cc1cc(C(F)(F)F)c(C#N)c(SCC(=O)c2ccc(Br)cc2)n1
103.8 | O=C(Nc1ccc2c(c1)OCCO2)Nc1nnc(CC(=O)N2CCCCC2)s1
113.9 | CC1(C)CC(=O)C2=C(C1)N(c1cccc(C(F)(F)F)c1)C(N)=C(C#N)C2c1ccsc1 (stereo not drawn)
95.1 | O=C(NCc1c(-c2ccc(Cl)cc2)nc2n1CCS2)c1ccc(F)cc1F
105.7 | CC1(C)CC(=O)C2=C(C1)N(c1ccc(Cl)cc1)C(N)=C(C#N)C2c1ccc2c(c1)OCO2 (stereo not drawn)
107.8 | NC1=NC(=O)C(C2(O)C(=O)Nc3ccccc32)S1 (stereo not drawn)
112.9 | COC(=O)C1=C(C)OC(N)=C(C#N)C1c1ccccc1C(F)(F)F (stereo not drawn)
115.4 | C=Cc1ccc(Cn2cccc(S(=O)(=O)N3CCCC3)c2=O)cc1
97.5 | CCc1nnc(-c2coc(S(=O)(=O)N3CCN(C(C)C)CC3)c2)o1
105.0 | CCOc1ccc(C2C(N3C(=O)c4ccccc4C3=O)C(=O)N2c2ccccc2F)cc1 (stereo not drawn)
112.9 | CCOC(=O)C1=C(O)/C(=C/c2ccc(OCC)c(OCC)c2)SC1=Nc1ccc(OCC)cc1
108.9 | Cc1cc(C)cc(C(=O)N2c3ccccc3N3C(c4c(C)c(C)cc(C)c4C)=NON23)c1
107.9 | COc1cc(NS(=O)(=O)c2ccc3c(c2)-c2oncc2CO3)cc(OC)c1
103.7 | Cc1cccc(OCCn2c(NC(=O)c3cccc([N+](=O)[O-])c3)nc3ccccc32)c1
98.2 | CCOC(=O)c1cccc(Nc2c(C(=O)OCC)cnc3c(C)cc(C)cc23)c1
118.2 | COc1ccc(C(=O)N2CCN(S(=O)(=O)c3ccc4c(c3)oc(=O)n4C)CC2)c(OC)c1
103.1 | O=C(CSc1nnc2c3sc(N4CCCC4)nc3ncn12)Nc1ccc(Cl)cc1
113.0 | COc1ccccc1C1NC(C(=O)O)Cc2c1[nH]c1ccccc21 (stereo not drawn)
109.5 | CCOc1ccc(NC(=O)CSc2nc3ccccc3c(=O)n2CC2CCC(C(=O)NCc3ccco3)CC2)cc1 (stereo not drawn)
101.7 | O=S(=O)(Nc1ccc(F)cc1F)c1ccc2c(c1)-c1oncc1CO2
106.9 | Cn1c2c(c(=O)n(C)c1=O)C(c1ccc(Cl)cc1Cl)C1C(=O)c3ccccc3C1=N2 (stereo not drawn)
102.3 | CCOC(=O)c1cnc(NC2CCCCC2)c2ccccc12
99.3 | COc1ccc(NC(=O)Nc2ccc(SCc3nnc(-c4ccccc4)o3)cc2)cc1
109.4 | CCOc1ccccc1NC(=O)C1=C(C)NC(=S)NC1c1c(OC)ccc2ccccc12 (stereo not drawn)
107.6 | O=C1C2N=NN(c3ccccc3)C2C(=O)N1c1cccc(F)c1 (stereo not drawn)
103.2 | O=C(NC1CCCC1)c1ccc2c(=O)n(CC3CCCO3)c(SCc3ccccc3Cl)nc2c1 (stereo not drawn)
110.5 | CC1=Cc2cc([N+](=O)[O-])ccc2OC12C=Cc1c(ccc3ccccc13)O2 (stereo not drawn)
110.0 | O=S(=O)(c1ccc2c(c1)CCC2)N1CCC(c2noc(-c3ccc(Cl)cc3)n2)CC1
108.8 | C=CCOC(=O)C1=C(C)OC(N)=C(C#N)C1c1ccc(F)cc1 (stereo not drawn)
97.6 | O=C(c1ccc2c(c1)OCO2)N1CCc2c([nH]c3ccccc23)C1c1ccc(Cl)cc1 (stereo not drawn)
101.8 | O=[N+]([O-])c1ccc(-c2nc(Nc3cccc([N+](=O)[O-])c3)c3ccccc3n2)cc1
102.8 | COc1ccc(NC(=O)C2CC(=O)N(C)C(=Nc3ccc(Br)cc3)S2)cc1 (stereo not drawn)
103.2 | COc1ccc(CC(=O)Nc2ccc(-c3cn4c(C(=O)N(C)C)csc4n3)cc2)cc1
98.3 | CCCc1cc(C2CCCN2Cc2ccc(F)c(Br)c2)no1 (stereo not drawn)
100.5 | CCOC(=O)C1=C(C)OC(N)=C(C#N)C1c1ccc(C(F)(F)F)cc1 (stereo not drawn)
101.7 | Cc1cccc(N2CCN(S(=O)(=O)c3cc(-c4nnc(C5CCC5)o4)co3)CC2)c1
108.1 | COC(=O)C1=C(C(=O)OC)SC2(S1)C(C(=O)OC)=C(C(=O)OC)SC1=C2c2cccc(C)c2NC1(C)C
102.3 | CCCCN(CC)c1ccc2nnc(CCc3nc(-c4ccc(Cl)cc4)no3)n2n1
99.6 | CC1=C(C(=O)OC2CCCC2)C2(O)C(=O)c3ccccc3C2(O)N1 (stereo not drawn)
108.9 | CC(=O)N1C(=S)NC(=O)/C1=C/c1cc2ccccc2nc1N1CCOCC1
106.2 | CCOC(CNC(=O)c1c[nH]c2ccc(S(=O)(=O)N(C)c3ccc(C(C)C)cc3)cc2c1=O)OCC
99.1 | CC(C)Oc1ccc(NC(=O)C2CCCN(S(=O)(=O)Cc3ccc(Cl)cc3)C2)cc1 (stereo not drawn)
101.9 | CCN(CC)S(=O)(=O)c1ccc2nc(NC(=O)c3ccncc3)sc2c1
119.0 | COC(=O)CN1C(=O)C2(C(C#N)=C(N)Oc3cc(C)oc(=O)c32)c2ccccc21 (stereo not drawn)
112.2 | Cc1ccc(N(CC(O)CN(CC(C)C)CC(C)C)S(=O)(=O)c2ccccc2)cc1 (stereo not drawn)
105.5 | O=C(Nc1ccc(C2(C(=O)NCC3CCCO3)CC2)cc1)c1ccccc1Cl (stereo not drawn)
102.0 | CCOC(=O)C1CCCN(S(=O)(=O)c2ccc(-c3onc(C)c3C)s2)C1 (stereo not drawn)
105.5 | CCOC(=O)c1c(-c2ccccc2)oc2ccc(OCC(=O)OCc3ccccc3)cc12
107.3 | Nc1nc(SCc2ccc(Br)cc2)n[nH]1
113.5 | CCN(CC)C(=O)CSc1nc2ccccc2n1S(=O)(=O)c1cc([N+](=O)[O-])ccc1C
101.2 | Cc1nc(C)c(C(=O)N2CCN(S(=O)(=O)c3ccc4c(c3)sc(=O)n4C(C)C)CC2)s1

# Other records follow:
GIV-Gai inh | Molecule
109.6 | COc1ccc2oc(=Nc3ccc(C(=O)O)cc3)c(C(=O)Nc3cc(Cl)ccc3OC)cc2c1
99.6 | COc1ccccc1NC(=O)C1CCCN1S(=O)(=O)c1cc2c(cc1C)NC(=O)CO2 (stereo not drawn)
108.6 | COc1ccc(C2=NN3C(C2)c2cc(OC)ccc2OC3c2ccc(F)c(F)c2)cc1 (stereo not drawn)
98.4 | Cc1ccc(C2CCCCCN2S(=O)(=O)c2ccc(Cl)s2)s1 (stereo not drawn)
105.5 | Cc1ccc(C)c2c1-c1ccccc1S(=O)(=O)N2S(=O)(=O)c1ccc2ccccc2c1
119.2 | COc1ccc(C2C3=C(CC(C)(C)CC3=O)Nc3nc(SCc4ccccc4)[nH]c(=O)c32)cc1 (stereo not drawn)
100.2 | COCCNC(=O)C1c2ccccc2C(=O)N1Cc1ccccc1 (stereo not drawn)
111.5 | CC(C/C=C\Cc1nc2c(c(=O)[nH]1)C(C)(C1CCCCC1)Cc1ccccc1-2)c1ccccc1 (stereo not drawn)
107.4 | CN(C)c1ccc(N2C(=O)/C(=C/c3ccc([N+](=O)[O-])cc3)C=C2c2ccccc2)cc1
106.7 | NS(=O)(=O)c1ccc(CCn2c(-c3ccc(Cl)s3)csc2=Nc2ccc(OC(F)(F)Cl)cc2)cc1
95.3 | O=S(=O)(Nc1cccc(CN2CCCC2)c1)c1cc(-c2cc(C(F)(F)F)on2)cs1
101.1 | CCOc1ccc(NC(=O)C2CCN(Cc3cc4ccccc4n3Cc3cccc(F)c3)CC2)cc1
113.0 | CCOC(=O)C1=C(O)/C(=C/c2ccc(O)c(OCC)c2)SC1=Nc1ccc([N+](=O)[O-])cc1
100.7 | Cc1cc(NC(=O)CN(C)S(=O)(=O)c2ccc3c(c2)C(=O)NCC(=O)N3)ccc1Br
103.2 | Cc1nn(-c2nc3ccc(Br)cc3s2)c2c1C(c1cccc(F)c1)CC(=O)N2 (stereo not drawn)
111.2 | CCN(CC)c1nc2c(c(=O)n(C)c(=O)n2C)n1CC(=O)c1ccc(Br)cc1

# Continued; it opens with the 3 that closed the last part.
GIV-Gai inh | Molecule
100.7 | Cc1cc(NC(=O)CN(C)S(=O)(=O)c2ccc3c(c2)C(=O)NCC(=O)N3)ccc1Br
103.2 | Cc1nn(-c2nc3ccc(Br)cc3s2)c2c1C(c1cccc(F)c1)CC(=O)N2 (stereo not drawn)
111.2 | CCN(CC)c1nc2c(c(=O)n(C)c(=O)n2C)n1CC(=O)c1ccc(Br)cc1
100.5 | CC(C)OCCCNC(=O)c1nc(N2CCSCC2)c2cn(C)nc2n1
108.5 | COc1cc(NC(=O)Cn2nc(C(F)(F)F)c(Br)c2C)c(OC)cc1Cl
104.0 | CCc1ccc(NC(=O)c2ccc(F)c(S(=O)(=O)N3CCN(c4ccc([N+](=O)[O-])cc4)CC3)c2)cc1
113.0 | CCN(CCCNC(=O)C1CCN(S(=O)(=O)N2CCOCC2)CC1)c1cccc(C)c1
101.4 | Cc1ccc(C(=O)NC(C)c2ccccc2)cc1NC(=O)c1nsc2ccccc12 (stereo not drawn)
105.5 | O=C(NC1CCCCC1)c1ccc(-c2cccc(F)c2)nc1
110.8 | CCN1CCN(CCNC(=O)C2CCc3sc(C(=O)N4CCC(C)CC4)cc3C2)CC1 (stereo not drawn)
107.2 | CCOC(=O)C1=CN(Cc2ccc(OC)c(OC)c2)C=C(C(=O)OCC)C1c1ccc(C)c([N+](=O)[O-])c1
114.8 | COc1ccc(-c2cn3nc(COc4cc(C)ccc4C(C)C)n4c3c2CCCC4)c(F)c1
104.4 | COc1ccccc1C1NC(=S)NC(C)=C1C(=O)Nc1ccc(C)cc1C (stereo not drawn)
112.6 | COc1ccc(NC(=O)c2cc3ccc(O)cc3oc2=Nc2ccc(C(=O)O)cc2)cc1OC
116.7 | O=C(c1ccc2c(=O)n(Cc3ccccc3)c(SCc3nc4ccccc4[nH]3)nc2c1)N1CCOCC1
108.9 | CCOc1ccc(NS(=O)(=O)c2cc(-c3cnn4c(C)cc(C)nc34)ccc2C)cc1
103.3 | COc1cccc(N2CCN(S(=O)(=O)c3cc(-c4nc(C(C)C)cs4)cs3)CC2)c1
98.7 | CCc1cc2c(SCC(=O)Nc3ccc(Br)cc3)ncnc2s1
103.2 | CN(C)S(=O)(=O)c1ccc(-c2noc(C(=O)NCCN3CCOCC3)n2)cc1

# 6 records drawn at random from the list so far:
GIV-Gai inh | Molecule
98.4 | Cc1ccc(C2CCCCCN2S(=O)(=O)c2ccc(Cl)s2)s1 (stereo not drawn)
111.2 | CCN(CC)c1nc2c(c(=O)n(C)c(=O)n2C)n1CC(=O)c1ccc(Br)cc1
103.5 | CCOC(=O)c1sc(NC(=O)CNC(=O)Cn2cnc3sc(C)c(C)c3c2=O)nc1C
99.3 | CCC(C)C(=O)N1CCCN(S(C)(=O)=O)CC1 (stereo not drawn)
102.0 | CCOC(=O)C1CCCN(S(=O)(=O)c2ccc(-c3onc(C)c3C)s2)C1 (stereo not drawn)
112.2 | Cc1ccc(N(CC(O)CN(CC(C)C)CC(C)C)S(=O)(=O)c2ccccc2)cc1 (stereo not drawn)

# (more compounds)
GIV-Gai inh | Molecule
105.5 | Cc1ccc(N=C2NC(=O)/C(=C\c3ccc(-c4ccc(C(=O)O)cc4)o3)S2)cc1
100.5 | O=S(=O)(c1ccc2c(c1)CCC2)N1CCCn2nc(-c3cccs3)cc2C1
97.3 | Cc1cccc(-c2nc3c4ccccc4n(CC(=O)c4ccc(C)cc4C)c(=O)n3n2)c1
97.4 | CCCCn1nnc(NCc2ccc(-c3ccc(Cl)cc3)o2)n1
115.2 | CN(CC(O)Cn1c(-c2ccccc2)c(-c2ccccc2)c2ccc3ccccc3c21)C1CCCCC1 (stereo not drawn)
115.7 | Cc1cccc(NC(=O)c2c(NC(=O)c3ccccc3Cl)sc3c2CCCCC3)c1
99.4 | C=CCOc1c(OC)cccc1C1CC(=O)Nc2c1c(C)nn2-c1ccc2nnc(C)n2n1 (stereo not drawn)
99.7 | CCN=C1SC(CC(=O)Nc2sc(C)c(C)c2C(=O)OC)C(=O)N1CC (stereo not drawn)
100.6 | Cc1ccc(S(=O)(=O)Nc2cc(Br)c3oc4c(c3c2)C(=O)CCC4)cc1
100.7 | Cc1ccc(-c2nc(C)cc3nn(CC(=O)Nc4cccc(Br)c4)c(=O)n23)cc1
103.4 | Cc1nc2c(nc(SCc3nc(-c4ccc(Cl)cc4)oc3C)n2C)c(=O)[nH]1
101.5 | O=C(c1cn(-c2cc(N3CCSCC3)ncn2)cn1)N1CCSCC1
109.7 | Cc1cccc(NC(=O)c2c(NC(=O)c3cccnc3)sc3c2CCCCC3)c1
108.6 | Cc1ccc2c(c1)NC(=O)c1cc(S(=O)(=O)N3CCCCC3C)c(Cl)cc1O2 (stereo not drawn)
104.7 | Cc1ccc2c(c1)NC(=O)c1cc(S(=O)(=O)N3CCSCC3)c(Cl)cc1O2
97.9 | Cc1ccc(NC(=O)N2CCN(Cc3cc(=O)n4nc(-c5ccccc5)sc4n3)CC2)cc1C
102.8 | O=C(NCCCN1CCCC1=O)c1ccc(NCc2ccc(F)cc2)c(S(=O)(=O)Nc2cccc(C(F)(F)F)c2)c1
107.0 | Cc1[nH]n(-c2ccccc2)c(=O)c1C(=O)c1cccc(F)c1
110.4 | O=C(NCc1cccc(Cl)c1)C1CCN(c2ncccc2-c2nc(-c3ccccc3)no2)CC1
105.0 | CC(=O)C12c3ccccc3C(c3ccccc31)C1C(=O)N(c3ccc(C)c(Cl)c3)C(=O)C12 (stereo not drawn)
103.2 | CC(C)OCCCNc1ncnc2c1CCC2
75.2* | CCCCOc1ccc(C2CC(=O)Nc3c2c(C)nn3-c2ccc3nnc(C)n3n2)cc1OCC (stereo not drawn)
